VDR inhibitor: vitamin D3 receptor (human) inhibition; P11473; VDR-SRC2-3 peptide fluorescence polarization, 2 h; Potency, µM, for the others: max response, negative = inhibition, hits mostly inhibitors; actives 0.93% (n = 400,000); active = well fitted inhibition curve with a large enough effect; inconclusive = small, poorly fitted or top-dose-only effect, or another doubt; inactive = no such curve, though single readings can be large or run the other way; note: series mostly up to about 120 µM
Target sequence (P11473 whole entry, looked up): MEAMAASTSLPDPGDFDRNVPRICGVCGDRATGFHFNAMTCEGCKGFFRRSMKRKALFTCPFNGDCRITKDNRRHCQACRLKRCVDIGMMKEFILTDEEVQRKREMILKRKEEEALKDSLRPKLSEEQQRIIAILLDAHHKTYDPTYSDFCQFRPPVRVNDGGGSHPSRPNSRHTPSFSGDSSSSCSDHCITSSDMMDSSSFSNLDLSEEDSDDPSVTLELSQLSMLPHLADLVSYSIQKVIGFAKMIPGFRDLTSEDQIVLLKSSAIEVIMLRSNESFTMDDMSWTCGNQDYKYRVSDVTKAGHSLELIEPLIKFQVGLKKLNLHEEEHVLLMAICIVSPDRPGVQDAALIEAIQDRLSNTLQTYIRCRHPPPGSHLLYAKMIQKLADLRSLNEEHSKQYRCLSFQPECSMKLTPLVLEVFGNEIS
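Inhibition of the VDR/SRC2-3 peptide interaction is quantified by fluorescence polarization. Compounds (23 nl, pintool) incubate with the reagents for 2 hours at ambient room temperature.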
The depositor's hits bear a star; ? = inconclusive; & = joins results of further samples; [ ] = dose if it differs, or a comment. % is set by controls: 0 for no effect and ±100 for the full control effect; potency is the fitted concentration of half-maximal effect.

VDR inhibitor | mol
11% | CCOC(=O)c1ccc(-c2ccc3c(=O)c4ccccc4n(C)c3c2)cc1F
-21% | O=C(c1ccc(OC2CCN(C/C=C/c3ccc(F)cc3)CC2)cc1)N1CCCC1
-1% | Cc1cc(C(=O)OC(C)C(=O)NC2CCCCC2C)c(C)o1 (stereo not given)
4% | O=C(O)c1ccccc1C(=O)OCCCCOC(=O)c1ccccc1C(=O)O
8% | O=C(Cn1cnc2c(nnn2-c2ccccc2)c1=O)NCc1ccc(F)cc1
-8% | COc1ccc(CN2C(=O)c3ccccc3C2C(=O)NC2CCCC2)c(OC)c1 (stereo not given)
2% | CCc1ccc(OCc2nc(-c3ccccn3)no2)c(Br)c1
-18% | CC(=O)N(/N=C1\Sc2ccccc2C1=O)c1ccc(C)cc1C
18% | COC(=O)Cc1ccc(NC(=S)NCc2ccc(OC)cc2)cc1
-22% | Cc1ccc(CN2CC(C(=O)N3CCN(S(=O)(=O)c4ccc(C(C)C)cc4)CC3)CC2=O)cc1 (stereo not given)

More results.
VDR inhibitor | mol
20% | Cc1ccc(/C=N/NC(=O)Cn2nc(C)c([N+](=O)[O-])c2C)o1
-3% | COc1cc(CN2CCCC(C(=O)c3ccccc3SC)C2)cc(OC)c1 (stereo not given)
16% | NCCOc1ccccc1OCCN
? | CN(C)Cc1nc2ccccc2c(=O)n1Cc1nc(-c2cc3ccccc3o2)cs1
1%&-3% | Nc1nc(NCc2cccc(Cl)c2)c2[nH]cnc2n1
? | O=C(CSc1ccccn1)c1ccc(F)cc1
-19% | COC(=O)CSc1nc2ccc(C)cc2cc1C#N
-11% | CCOC(=O)c1ccc2c(c1)NCc1cccc(OC)c1O2
-5% | CC1=CC(C)(C)N(C(=O)c2ccccc2)c2ccccc21
17% | CN1C[C@@H]2C(c3ccccc3)C3(c4ccccc4)CC2(C3)[C@H]1c1ccccc1 (stereo not given in full)

Additional records:
VDR inhibitor | mol
1% | O=C(c1ccccc1[N+](=O)[O-])N1CCN(c2ccc(N3CCOCC3)nn2)CC1
11% | O=C(NCCc1ccc2c(c1)OCCO2)c1cccc(S(=O)(=O)N2CCCC2)c1
-11% | O=C(CCS(=O)(=O)c1ccccc1)Nc1nc(-c2cccs2)cs1
-15% | Cn1c(=O)c2c(ncn2CC(=O)Nc2ccc(N3CCOCC3)cc2)n(C)c1=O
-8% | COc1ccc(C(=O)Nc2ccccc2C(=O)N/N=C/c2ccccc2OC)cc1
-9% | COc1ccc(CCNC[C@@H](O)c2ccc(O)cc2)cc1OC
-5% | Cc1c(N2C(=O)/C(=C3/C(=O)N(C)c4ccccc43)SC2=S)c(=O)n(-c2ccccc2)n1C
5% | Cc1nc2ccccc2n1CCc1nc2c3ccccc3nc(SCc3ccccc3F)n2n1
-5% | CCc1nnc(NC(=O)CSc2nc(C)cc(C)c2C#N)s1
? | Cc1cc(=O)[nH]c(Nc2ccc(N(C)C)cc2)n1

Next part
VDR inhibitor | mol
-22% | COc1ccc(-c2sc3ccccc3c2/C=C/c2ccc(OC)c(OC)c2)cc1
-10% | Cc1cccc(S(=O)(=O)Nc2cccc3c2C(=O)c2ccccc2-3)c1
7% | COc1ccc(-c2cc3ccc(O)c(CN4CCCCC4C)c3oc2=O)cc1OC (stereo not given)
-9% | Cc1cccc(-c2nc(SCC(=O)Nc3ccc4c(c3)OCO4)c(-c3ccccc3)[nH]2)c1
-5% | Cn1ncc(Cl)c1C(=O)Nc1ccncc1
31% | C=CCn1c(SCn2nnc3ccccc3c2=O)nc2scc(-c3cccs3)c2c1=O
9% | CCCCC1S/C(=N/N=C/c2ccc(OC)cc2)N(Cc2ccc(OC)cc2)C1=O (stereo not given)
-18% | CCN1C(=O)[C@H]2[C@@H](c3ccc(C)cc3)N3C(=O)N(c4cccc(Cl)c4)C(=O)[C@@]3(CC(C)C)[C@H]2C1=O
2% | Cc1ccnc(NC(=O)C2CCN(S(=O)(=O)c3ccc4c(c3)CC(C)N4C(=O)C3CCC3)CC2)c1 (stereo not given)
21% | Cn1c(SCC(=O)Nc2ccc(NC(=O)c3cccc(F)c3)cc2)nnc1-c1ccncc1

(next part)
VDR inhibitor | mol
-22% | CCN(CC)c1cccc(OC(=O)c2cccnc2Cl)c1
5% | CCN(c1ccccc1)S(=O)(=O)c1cc(NC(=O)COC(=O)C2CC2)ccc1Cl
10% | COC(=O)COc1ccc2cc(-c3ccccc3)c(=O)oc2c1
9% | CC(Oc1ccc(-c2ccccc2)c(F)c1)c1ccn(S(=O)(=O)c2ccc(Br)cc2)n1 (stereo not given)
7% | CC(C)(C)OC(=O)N1CCC[C@H]1c1nnc(SCc2ccccc2F)o1
5% | COc1ccc(OCCSc2nnc(-c3ccc(OC)cc3)n2N)cc1
-4% | O=C(OCc1ccccn1)C1CCN(C(=O)c2ccc(Cl)cc2)CC1
5% | COc1ccc(NC(=O)CCN2CCN(S(=O)(=O)c3cc(Cl)ccc3Cl)CC2)cc1
2% | CN(CCc1ccccn1)C(=S)Nc1ccc(Cl)cc1Cl
8% | O=C(c1cccc(-n2cccc2)c1)N1CCN(S(=O)(=O)c2c(F)cccc2F)CC1

More compounds
VDR inhibitor | mol
27% | COc1ccc(C(=O)Nc2ccc(NC(=O)c3ccccc3OC)nc2)cc1
-14% | C[C@H](NC(=O)OC(C)(C)C)c1nnc(SCC(=O)Nc2cccc(Cl)c2)o1
-7% | COc1ccc(N2CCN(C(CNC(=O)C(=O)NCCCn3ccnc3)c3cccnc3)CC2)cc1 (stereo not given)
4% | CCCCc1c(C)nc2ccccc2c1SCCC(=O)O
-13% | c1ccc(CCNC2=NCCCS2)cc1
-5% | COCCn1c(=NC(=O)/C=C/c2cccs2)sc2cc(NC(C)=O)ccc21
-18% | COc1ccc(C2CC(c3ccccc3)=NN2C(=O)COC(=O)c2cc(S(=O)(=O)N3CCOCC3)ccc2Cl)cc1 (stereo not given)
2% | CC(=O)CCc1c(C)[nH]c2ccccc2c1=O
-24% | CC(=O)Nc1ccc(NC(=O)c2ccc(N(C)S(=O)(=O)c3ccc(C)cc3)cc2)cc1
-12% | COc1ccccc1NC(=O)CCc1nnc2ccc(N3CCC4(CC3)OCCO4)nn12

An excerpt from above in order of heavy-atom count, highest first.
VDR inhibitor | mol
-18% | COc1ccc(C2CC(c3ccccc3)=NN2C(=O)COC(=O)c2cc(S(=O)(=O)N3CCOCC3)ccc2Cl)cc1 (stereo not given)
-7% | COc1ccc(N2CCN(C(CNC(=O)C(=O)NCCCn3ccnc3)c3cccnc3)CC2)cc1 (stereo not given)
-12% | COc1ccccc1NC(=O)CCc1nnc2ccc(N3CCC4(CC3)OCCO4)nn12
-24% | CC(=O)Nc1ccc(NC(=O)c2ccc(N(C)S(=O)(=O)c3ccc(C)cc3)cc2)cc1
5% | COc1ccc(NC(=O)CCN2CCN(S(=O)(=O)c3cc(Cl)ccc3Cl)CC2)cc1
5% | CCN(c1ccccc1)S(=O)(=O)c1cc(NC(=O)COC(=O)C2CC2)ccc1Cl
27% | COc1ccc(C(=O)Nc2ccc(NC(=O)c3ccccc3OC)nc2)cc1
-14% | C[C@H](NC(=O)OC(C)(C)C)c1nnc(SCC(=O)Nc2cccc(Cl)c2)o1
5% | COc1ccc(OCCSc2nnc(-c3ccc(OC)cc3)n2N)cc1
-4% | O=C(OCc1ccccn1)C1CCN(C(=O)c2ccc(Cl)cc2)CC1
10% | COC(=O)COc1ccc2cc(-c3ccccc3)c(=O)oc2c1
-22% | CCN(CC)c1cccc(OC(=O)c2cccnc2Cl)c1
2% | CC(=O)CCc1c(C)[nH]c2ccccc2c1=O
-13% | c1ccc(CCNC2=NCCCS2)cc1

Later entries.
VDR inhibitor | mol
18% | COc1ccc(N2CCN(Cc3nc4c(c(=O)[nH]c(=O)n4C)n3CCCc3ccccc3)CC2)cc1
-2% | CCS(=O)(=O)N1CCC(C(=O)NCCCN2CCCC2)CC1
-14% | CCOc1ccc(C2C(C(=O)Nc3ccc(Cl)cc3)=C(C)Nc3nc(C(F)(F)F)nn32)cc1 (stereo not given)
-12% | O=S(=O)(Nc1ccc(Cl)cc1)c1ccc(NS(=O)(=O)c2ccc3c(c2)OCCO3)cc1
12% | O=C(COc1ccc2ccccc2c1)NC1CC(=O)N(c2cccc(F)c2)C1 (stereo not given)
-7% | Cc1ccc(/C=C2/SC(=S)N(C3CCCCC3)C2=O)o1
3% | CCCOc1c(Cl)cc(/C=N/O)cc1OCC
20% | CCN1C(=O)c2ccccc2Sc2ccc(NC(=O)c3ccc(C)c(F)c3)cc21
-9% | CCCC(=O)Nc1cc(C(=O)O)ccc1Sc1ccc(C)cc1
4% | CCc1ccc(S(=O)(=O)NC(=S)NC2CCCCC2)cc1

New compounds follow:
VDR inhibitor | mol
4% | CCN(CC(=O)NCc1cccs1)C(=O)COc1ccc(C(N)=O)cc1
-13% | Cc1ccc(-c2csc(N3CCC[C@@H]3C(=O)NCCn3c(C(F)(F)F)nc4ccccc43)n2)cc1
11% | CCOc1ccc(/C=N/NC(=O)CSc2n[nH]c(=O)[nH]c2=O)cc1OC
4% | CN(C)/C=C(/C(=O)c1ccccc1)S(=O)(=O)c1ccc(Cl)cc1
-10% | Cc1cccc(C)c1OCC(=O)OC/C(O)=C(\C#N)c1nc2ccccc2[nH]1
1% | COc1ccc(N2CC(NC(=O)c3ccco3)CC2=O)cc1OC (stereo not given)
-4% | S=C1N(c2ccccc2)C(c2ccc(Br)cc2)N2CCCN12 (stereo not given)
-1% | O=C(NNC(=O)C1CCN(S(=O)(=O)c2ccc(Cl)cc2)CC1)c1ccccc1O
-4% | C=CCn1c(=O)c2c3c(sc2n2c(Nc4ccccc4)nnc12)CCCC3
-17% | O=C1C2C3C=CC(C4CC34)C2C(=O)N1/N=C/c1ccc(-c2ccc([N+](=O)[O-])cc2)o1 (stereo not given)

Continuation:
VDR inhibitor | mol
18% | C=CCn1c(SC(C)C(=O)Nc2ccc(F)c(F)c2F)nnc1C1CC1 (stereo not given)
0% | O=C(NC(Cc1ccccc1)C(=O)O)c1cccnc1Cl (stereo not given)
1% | COc1nc(-c2ccccc2)ncc1S(=O)(=O)c1ccccc1
25% | O=C(OCC(=O)N1CCN(S(=O)(=O)c2ccc(Cl)cc2)CC1)C1CC1
6% | CC(=O)Nc1cccc(N/C(N)=N/c2nc(C)cc(C)n2)c1
-5% | Cn1cc(CCC(=O)N2CCCC(C(=O)c3cccc4ccccc34)C2)cn1 (stereo not given)
9% | CCCCN(C)CCCNC(=O)Cn1ncc2c3ccccc3n(Cc3cc(C)ccc3C)c2c1=O
-15% | Cc1cc(C)c[n+](-c2nc3ccccc3nc2[N-]S(=O)(=O)c2cccs2)c1
-4% | CCC(Oc1ccc(C)cc1)C(=O)Nc1ccccc1C(=O)N1CCOCC1 (stereo not given)
31%[activator] | Cc1occc1C(=O)Nc1ccccc1C#N

Look-ups from the list.
Under VDR inhibitor, C=CCn1c(SC(C)C(=O)Nc2ccc(F)c(F)c2F)nnc1C1CC1 (stereo not given) is entered as 18%
Under VDR inhibitor, O=C(NC(Cc1ccccc1)C(=O)O)c1cccnc1Cl (stereo not given) is entered as 0%

Next part.
VDR inhibitor | mol
-12% | O=C(COC(=O)/C=C/c1cccc(F)c1)Nc1ncccn1
0% | CCc1ccc(NC(=O)C2=CC(c3ccc(OC)cc3)=NS(=O)(=O)N2C)cc1
-15% | NS(=O)(=O)c1cccc(NC(=O)CSc2nc3ccccc3n2-c2ccccc2)c1
3% | COc1ccc(CC(=O)OCC(=O)Nc2cccnc2Cl)cc1OC
15% | CSc1cccc(NC(=O)/C=C/c2ccccc2)c1
-6% | CC(=O)Nc1ccc(OCC(=O)NCCc2ccccc2)cc1
6% | CCCc1oc2ccc(NS(=O)(=O)c3ccc(OCC)cc3)cc2c1C(=O)OCC
6% | COC(=O)C1CCN(S(=O)(=O)CCNC(=O)c2ccc3c(c2)OCO3)CC1
1% | CC(C)(C)n1c(O)c2ccc(C(=O)N=NC(=O)c3ccccc3)cc2c1O
-3% | O=C(Nc1cc(C(=O)N2CCCC2)ccc1N1CCCC1)c1ccccc1

More results.
VDR inhibitor | mol
-26% | Cc1ccc(C)c(NC(=S)NC23CN4CN(CN(C4)C2)C3)c1
-8% | CC(=O)c1ccc(S(=O)(=O)Nc2ccc(-c3ccc4nnc(C)n4n3)cc2)cc1
-3% | Clc1ccc(-c2cnc3n2CCC3)cc1
6% | CCS(=O)(=O)Nc1ccc(-c2cn3c(C)csc3n2)cc1
-22% | COc1cc(C(=O)NCC(=O)OCCN2C(=O)c3ccccc3C2=O)cc(OC)c1OC
19% | CCC(C)Nc1nc2c(c(=O)n(C)c(=O)n2C)n1Cc1ccc(F)cc1 (stereo not given)
-1% | CC(C)c1ccc2occ(CC(=O)Nc3ccccc3Cl)c2c1
-7% | CCC(C)[C@H](NC(=O)N1CCn2c1nc1ccccc12)C(=O)NCCc1ccccc1 (stereo not given in full)
-10% | CCCN1CCC(N(C)CCc2ccc(OC)c(OC)c2)CC1
-31% | CCSC1=C(C#N)C(c2cccc(O)c2)CC(=O)N1 (stereo not given)

(continued)
VDR inhibitor | mol
-2% | Cc1ccc(C)c(NC(=O)CN(C)C(=O)CN2C(=O)NC3(CCc4ccccc43)C2=O)c1 (stereo not given)
-22% | CCOc1ccc(NC(=O)C2CCN(c3nnnn3-c3ccccc3)CC2)cc1
-19% | Cc1ccc(SC[C@H](CC(C)C)N2CCN(C)CCC2=O)cc1
-3% | CCCn1nc(C(=O)NNC(=O)Cc2ccc(S(=O)(=O)N3CCOCC3)s2)c2ccccc2c1=O
8% | C[C@@H]1O[C@H](O[C@@H]2\C=C/C=C\C=C/C=C\C[C@H](C)OC(=O)/C=C\[C@H]3O[C@@H]3C[C@H](O)C[C@]3(O)C[C@@H](O)[C@@H](C(=O)O)[C@H](C2)O3)[C@@H](O)[C@H](N)[C@@H]1O (stereo in doubt)
? | O=C1CCCN1CC(O)CS(=O)(=O)Cc1ccc(Cl)cc1Cl (stereo not given)
-13% | Cc1ccc(C(=O)NCCc2nnc3ccc(NCc4ccc5c(c4)OCO5)nn23)cc1

From PubChem

This is a subset (hit frequency here may not be typical).
